# VCAM-1 rise: enhancers of VCAM-1 display on endothelial cells, cell-based, plate reader, pooled HUVEC, TNFa stimulus (AID 455). HUVEC TNFa-induced VCAM-1 immunofluorescence, plate reader; numbers were filed only for top-ranked candidate wells. augmentation, % at 5 µM. 0.2% of 10,000 active;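 active means a compound raising TNF-alpha-driven VCAM-1 surface staining, with its hit status upheld on visual or statistical review; inactive means the rest, including hits rejected on review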;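 further: 0% = TNFa with vehicle and 100% = strongest image-checked hit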
# Proteasome disasm: blocks ATP-dependent breakdown of the yeast 26S proteasome; anti-FLAG beads, GFP-proteasome disassembly, flow cytometry; inhibition of disassembly, % (test concentration not listed); 0.2% of 24,000 active; AID 751;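 active means above 40%; inconclusive means likely self-fluorescent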;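 further: plate controls were ATP control with full disassembly for no effect and ATP-gamma-S intact proteasomes for full effect; higher percent means more bead fluorescence retained so stronger block of disassembly; stock transfer was 100 nL into about 10 µL; wells with too few beads may also be inconclusive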
# * hit, by the source's call; i = inactive; u = inconclusive; x = not tested or not shown. Not all compounds are listed, so the mix of outcomes need not match the whole.
VCAM-1 rise | Proteasome disasm | smiles
x | -2.1 | O=C(NCCCN1CCCC1)Nc1cccc2ccccc12
i | 0.7 | O=S(=O)(NCC(O)COCc1ccco1)c1cccs1 (configuration not stated)
i | -3.1 | COc1ccc(OC)c(S(=O)(=O)Nc2ccccc2SC)c1
i | 0.0 | CCCS(=O)(=O)N1CCN(C(=O)CCC2CCCC2)CC1
x | -0.8 | CC1CCCCC1NC(=O)CCS(=O)(=O)c1cccc2nonc12 (configuration not stated)
x | -0.9 | C1CCN(c2nc3nonc3nc2N2CCCC2)C1
x | -0.9 | CCC1(C(=O)O)NC(c2cccc(OC)c2O)C2C(=O)N(c3ccccc3)C(=O)C21 (configuration not stated)
x | -0.9 | COc1ccc(-c2nnc3ccc(SCC(=O)N4CCN(c5ccccc5)CC4)nn23)cc1OC
i | -0.4 | COc1ccc(C(=O)Nc2ccccc2C(=O)NCCN2CCOCC2)cc1
i | 1.8 | Cc1cc(C)n(CCc2nc(-c3cccs3)cs2)n1
x | 0.9 | CC(NC(=O)C1C(=O)N(CCO)C2(C)CC1c1ccccc1O2)c1ccccc1 (configuration not stated)
i | 1.0 | CC(O)c1cc2c(cc1NC(=O)c1cnn3c1NC(c1ccco1)CC3C(F)(F)F)OCO2 (configuration not stated)
x | -0.2 | O=C(Cn1ccc2ccccc2c1=O)N1CCN(c2cccc(Cl)c2)CC1
x | 17 | CC(C)CCSc1nnc(Cn2c(=O)sc3ccccc32)n1C
x | -4.5 | Cn1c(C(=O)N2CCN(C3CCCCC3)CC2)cc2c(=O)n(C)c3ccccc3c21
i | 0.6 | CCOCCCNC(=O)c1ccc2c(c1)N(Cc1ccccc1)C(=O)CS2=O (configuration not stated)
i | 0.4 | COc1ccc(-c2nc(SC)n(S(=O)(=O)c3ccccc3)n2)cc1
x | -1.1 | Cc1ccc(-c2cn3c(=S)[nH]nc3s2)cc1
x | 1.6 | c1ccc(OCc2nnc3sc(C4COc5ccccc5O4)nn23)cc1 (configuration not stated)
i | -0.1 | O=C(O)CN1C(=O)CNC1=O
x | 0.4 | O/N=C1/CCSc2ccccc21
x | 0.4 | CC(=O)N1CCN=C1SCc1cccc(C(F)(F)F)c1
i | 0.9 | COc1ccc(-c2cnc(SCC(=O)Nc3ccc4c(c3)OCO4)n2Cc2ccco2)cc1
x | 5.3 | Cn1c(=O)oc2cc(S(=O)(=O)N3CCCC(C(=O)NCCN4CCOCC4)C3)ccc21 (configuration not stated)
x | -0.7 | O=C(CSc1oc(-c2ccco2)nc1S(=O)(=O)c1ccc(F)cc1)NCC1CCCO1 (configuration not stated)
i | -0.8 | C=CCn1c(=O)[nH]c2cc(C(=O)N3CCN(c4ccc(C(C)=O)cc4)CC3)ccc2c1=O
x | -1.6 | COCCn1c(=S)[nH]c2cc(C(=O)N3CCN(Cc4ccc5c(c4)OCO5)CC3)ccc2c1=O
x | -2.6 | COc1ccc(S(=O)(=O)N2CC3C4C=CC(C4)C3C2)cc1 (configuration not stated)
x | -5.9 | COCCCNC(=O)c1ccc2c(=O)n(C3CCCC3)c(=S)[nH]c2c1
i | -0.7 | Cc1onc(-c2ccccc2)c1C(=O)N1CCCSC1=Nc1ccccc1
i | 0.3 | CCCN(C(=O)CSc1nnc(-c2ccoc2C)n1N)C1CCS(=O)(=O)C1 (configuration not stated)
x | -1.2 | COCCNC(=O)c1cc2c(=O)n(C)c3ccccc3c2n1C
i | 5.7 | Nc1nc(Nc2ccc(Cl)cc2Cl)nc(C(F)(F)F)n1
x | -0.3 | O=C(Nc1nccs1)C(NS(=O)(=O)c1ccc(Br)s1)c1ccccc1 (configuration not stated)
x | -0.7 | COc1ccc(N2C(=O)CCC(C(=O)N3CCCCC3)C2c2ccc(F)cc2)cc1 (configuration not stated)
i | -0.3 | c1ccc(-n2ncc3c(NC4CCCCCC4)ncnc32)cc1
x | -2.9 | CCOC(=O)N1CCC(NC(=O)C2CCN(Cc3nc(-c4ccc(CC)cc4)oc3C)CC2)CC1
x | 0.4 | O=C(O)CSc1nc2c(c(=O)[nH]1)CCCC2
x | 0.0 | O=C(CSc1nnc(CNC(=O)c2cccs2)o1)c1ccccc1
i | 0.4 | CCN(CC)CCNC(=O)CCn1c(=S)[nH]c2cc3c(cc2c1=O)OCO3

# Two entries from above in another layout:
O=C(O)CSc1nc2c(c(=O)[nH]1)CCCC2
  VCAM-1 rise = x | Proteasome disasm = 0.4

COc1ccc(N2C(=O)CCC(C(=O)N3CCCCC3)C2c2ccc(F)cc2)cc1 (configuration not stated)
  VCAM-1 rise = x | Proteasome disasm = -0.7

# New compounds follow:
VCAM-1 rise | Proteasome disasm | smiles
x | -1.1 | O=c1c2[nH]c3ccc(F)cc3c2ncn1CCN1CCN(Cc2ccccc2)CC1
i | 0.6 | Cc1cc(Cl)c(S(=O)(=O)NC2CCCCC2)cc1OCC(=O)Nc1nncs1
x | 0.4 | CCCCNC(=O)CC1N=C2c3ccccc3N=C(SCC(=O)Nc3ccccc3C)N2C1=O (configuration not stated)
i | -2.2 | CCCCOC(=O)Cn1c(=N)n(CCN2CCOCC2)c2ccccc21
x | -10.0 | O=C(NCCN1CCCCCC1)C1CCN(S(=O)(=O)N2CCOCC2)CC1
i | 7.4 | CCOC(=O)c1ccccc1NC(=O)c1c(O)c2ccccc2n(CC)c1=O
i | -2.8 | CC1(C)NC(=O)N(CNc2cc(Cl)ccc2Cl)C1=O
x | -1.8 | COc1ccc(CCNS(=O)(=O)c2cccc3nsnc23)cc1OC
x | -0.2 | CC(=O)N1CCCc2cc(S(=O)(=O)N(C)Cc3ccccc3)ccc21
i | 1.6 | COc1ccc(CCn2c(=N)c(C#N)cc3c(=O)n4ccccc4nc32)cc1
x | -0.9 | O=C(NCCN1CCOCC1)c1cc(=O)[nH]c2ccc(Br)cc12
x | 0.7 | CCc1c(C(=O)Nc2ccc(OC)cc2)[nH]c(C)c1C(C)=O
i | -0.2 | Cc1cc2c(=O)n(Cc3ccco3)c(SCC(=O)NCc3ccco3)nc2s1
x | 4.6 | CC1Cc2ccccc2N1C(=O)C1CCCN(S(=O)(=O)c2cccc3cccnc23)C1 (configuration not stated)
i | 0.4 | COc1cc2c(cc1OC)C(c1ccccc1O)N(C1CC(=O)N(c3ccccc3)C1=O)CC2 (configuration not stated)
x | -1.0 | COC(=O)c1ccc(C(=O)OC)c(NC(=O)c2oc(C)nc2C)c1
x | -1.0 | Cc1ccc(-c2nc(S(=O)(=O)c3ccc(F)cc3)c(SCC(=O)NCC3CCCO3)o2)cc1 (configuration not stated)
x | 0.2 | CCCCCn1c(CN2CCN(c3cccc(Cl)c3)CC2)nc2c1c(=O)[nH]c(=O)n2C
i | 0.4 | COc1cc2c(=O)nc3n(c2cc1OC)C(c1ccccc1)N=C(N)N3 (configuration not stated)
x | -0.3 | CCn1c(=O)c2cc(C(=O)N3CCCC3)sc2c2ccccc21
i | -3.2 | COc1ccc(CCNC(=O)c2ccc(N3CCCC3=O)cc2)cc1OC
i | 0.5 | COC(=O)c1cc(Br)c(=O)n(Cc2cccnc2)c1
i | 3.8 | CCOC(=O)C1CSc2[nH]c(=O)sc2C1c1ccccc1 (configuration not stated)
i | 3.3 | Nc1sccc1C(=O)c1ccc(Cl)cc1
x | 0.1 | O=C(c1cccc(N2C(=O)C3CC=CCC3C2=O)c1)N1CCN(c2ccccc2)CC1 (configuration not stated)
x | -0.8 | Cc1nc(C)c(C(=O)NCc2ccccc2Cl)o1
i | -0.2 | COc1ccc(C(C)=O)c(OC(=O)c2ccc(OC)c(OC)c2)c1
x | 2.5 | CCn1cc(C(=O)N2CC(C)CC(C)C2)c(=O)c2cc(S(=O)(=O)N3CCOCC3)ccc21 (configuration not stated)
x | -0.7 | O=C1CSC(c2ccccn2)N1c1cccc(Cl)c1 (configuration not stated)
x | 1.6 | COc1cccc(-n2nnc3c(=O)n(CC(=O)NC4CCCC4)cnc32)c1
i | 0.7 | CCN(CCO)C1CC(=O)N(c2ccccc2C)C1=O (configuration not stated)
i | 0.3 | COc1cccc(-c2nc3n(n2)C(c2ccccc2Cl)C(C(N)=O)=C(C)N3)c1 (configuration not stated)
i | 1.5 | CCc1nnc(-n2nc(C)cc2-c2ccccc2)n1N
x | 3.1 | Cc1ccc(-c2nc3ncccn3c2NC2CCCC2)o1
i | 1.3 | CCOc1ccc(OCC)c(NC(=O)CN2CCN(C(=O)c3ccco3)CC2)c1
x | 0.4 | Cc1ccnc(NC(=O)C2CCN(S(=O)(=O)c3cccc4nonc34)CC2)c1
x | 3.9 | CCOC(=O)c1c(C)c(C(=O)Nc2cc(F)ccc2F)c(C)n1C
i | u | Cc1ccc2occ(CN3CCN(c4ccccc4)CC3)c(=O)c2c1
i | -3.0 | COc1ccccc1N1CCN(c2cc(N3CCCC3)nc(C)n2)CC1
x | 0.4 | COC(=O)c1ccc(/C(O)=C(\C#N)c2nc3ccccc3s2)cc1
i | 2.9 | COc1ccc(OC)c(C2CC(=O)NC(SC)=C2C#N)c1 (configuration not stated)
i | -0.9 | COc1ccc(-c2nnc(-c3cccs3)o2)cc1OC
i | -1.0 | O=C(CCC(=O)N1CCc2ccccc2C1)N1CCN(S(=O)(=O)c2ccccc2)CC1
i | -1.0 | O=C(Cn1ncc2c(=O)oc3ccccc3c21)Nc1nc2ccccc2s1
i | -0.4 | c1ccc(-n2ncc3c(N4CCCCC4)ncnc32)cc1
i | 0.8 | CCOC(=O)C1=C[C@]2(CC)CCCN3CCc4c(n1c1ccccc41)[C@@H]32
x | 0.7 | CCn1c2ccccc2c2nnc(SCC(=O)Nc3ncccn3)nc21
x | -0.4 | CCOC(=O)N1CCN(c2c(N3CCN(c4cccc(C(F)(F)F)c4)CC3)c(=O)c2=O)CC1
x | -3.2 | Cc1cccc(CCNC(=O)CN(C)S(=O)(=O)c2ccc3c(c2)c(=O)n(C)c(=O)n3C)c1
x | 0.1 | Cc1ccc(-n2ncc3c(=O)[nH]c(SCC(=O)N4CCCc5ccccc54)nc32)cc1
x | -0.4 | CCc1ccc(Cn2nnc(C(=O)NCc3ccccc3OC)c2N)cc1
x | 6.4 | CCCCOc1ccc(OCCCC)c2c1NC1(N2)C(=O)N(C(C)=O)c2ccccc21
i | -2.4 | Cn1nnnc1SCC(=O)NCc1ccco1
x | -1.1 | CCOC(=O)Cn1c(=O)oc2cc(S(=O)(=O)N3CCn4c3nc3ccccc34)ccc21
x | 2.5 | CC(C)CNS(=O)(=O)c1ccc(S(=O)(=O)N2CCN(CCC#N)CC2)cc1
x | -0.5 | COC(=O)c1cc(-c2ccc(Br)cc2)on1

# Profiles as entered above:
# Shown for `Cc1cccc(CCNC(=O)CN(C)S(=O)(=O)c2ccc3c(c2)c(=O)n(C)c(=O)n3C)c1` → VCAM-1 rise = x; Proteasome disasm = -3.2
# Shown for `CCc1ccc(Cn2nnc(C(=O)NCc3ccccc3OC)c2N)cc1` → VCAM-1 rise = x; Proteasome disasm = -0.4

# Of the compounds above, 4 have a cyano group.
VCAM-1 rise | Proteasome disasm | smiles
i | 1.6 | COc1ccc(CCn2c(=N)c(C#N)cc3c(=O)n4ccccc4nc32)cc1
x | 0.4 | COC(=O)c1ccc(/C(O)=C(\C#N)c2nc3ccccc3s2)cc1
i | 2.9 | COc1ccc(OC)c(C2CC(=O)NC(SC)=C2C#N)c1 (configuration not stated)
x | 2.5 | CC(C)CNS(=O)(=O)c1ccc(S(=O)(=O)N2CCN(CCC#N)CC2)cc1

# The list goes on:
VCAM-1 rise | Proteasome disasm | smiles
x | 1.6 | COc1ccccc1NS(=O)(=O)c1ccc(Br)s1
i | 0.1 | CC(C)(C#N)Nn1cnnc1
x | -0.9 | Cn1nnnc1SCc1cc(=O)[nH]c2ccccc12
x | -1.3 | CCOC(=O)CC(N)c1ccc(OC)cc1 (configuration not stated)
x | -0.1 | CC12CC(NC(=O)N1c1cccc(C(=O)Nc3ncn[nH]3)c1)c1ccccc1O2 (configuration not stated)
x | 0.0 | Cc1ccccc1S(=O)(=O)Cc1ccc(C(=O)NCCN2CCN(Cc3ccccc3)CC2)o1
x | -2.9 | COc1ccccc1S(=O)(=O)Cc1ccc(C(=O)N2CCN(c3ccccc3)CC2)o1
i | u | Cc1nc2ccc(S(=O)(=O)NCC(=O)N(C)Cc3ccco3)cc2s1
x | -1.4 | CC1=C(C(=O)Nc2cccnc2)C(c2ccncc2)n2nnnc2N1 (configuration not stated)
x | 0.2 | CCn1cc(C(=O)N2CCCC2)c(=O)c2cc(S(=O)(=O)N(C)C)ccc21
x | -0.7 | O=C1CCCc2[nH]nc(-c3cccnc3)c21
x | 0.3 | COc1ccc2oc(C(=O)C3CC3)c(NC(=O)CCCN3C(=O)c4ccccc4C3=O)c2c1
x | -0.1 | C=CCNC(=O)c1oc2ccc(S(=O)(=O)N(CC)CC)cc2c1C
x | -1.1 | COC(=O)n1ccc(C(=O)Nc2ccccc2F)n1
i | 1.0 | COCC(=O)Nc1sc2c(c1C(=O)OC)CCC(C)C2 (configuration not stated)
i | 3.2 | COc1cccc(N2CCN(CC(=O)c3c[nH]c4ccc(OC)cc34)CC2C)c1 (configuration not stated)
x | -0.9 | CCOc1ccc(OCC)c(Nc2cc(C)nc3nc(C)nn23)c1
i | 1.4 | CCn1c(C)nc2cc(C(=O)OC(C(F)(F)C(F)F)C(F)(F)C(F)F)ccc21
i | 0.2 | CCCCCCNS(=O)(=O)c1ccc(Cl)s1
i | -0.3 | CCOc1cc(C(=O)NCc2nnc(SCC(=O)OC)n2C)cc(OCC)c1OCC
x | 2.1 | O=C(CSC1=NCCS1)Nc1nc2c(s1)CCCC2
i | -1.7 | CCn1c(SCC(N)=O)nnc1-c1ccc(S(=O)(=O)N2CCN(C)CC2)cc1
